KCNQ2 pot: enhances the rat KCNQ2 potassium channel | O88943 | CHO-K1 KCNQ2, FluxOR thallium flux fluorescence; active compounds read high | B-score at 10 µM | hit rate 0.54% among 310,000 | AID 2239;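 active means fluorescence ratio B-score at least 3 SD of library B-scores, with initial fluorescence B-score within 3 SD, cut at about 5.3 in these data; same plate scores as AID 2156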;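 further: B-score of peak minus minimum over baseline fluorescence ratio after K+ and Tl+ stimulus; positive B-score means potentiation of KCNQ2 with more thallium influx and brighter signal; only the inactives scoring about 0 or higher are listed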
Target sequence (O88943 whole entry, looked up): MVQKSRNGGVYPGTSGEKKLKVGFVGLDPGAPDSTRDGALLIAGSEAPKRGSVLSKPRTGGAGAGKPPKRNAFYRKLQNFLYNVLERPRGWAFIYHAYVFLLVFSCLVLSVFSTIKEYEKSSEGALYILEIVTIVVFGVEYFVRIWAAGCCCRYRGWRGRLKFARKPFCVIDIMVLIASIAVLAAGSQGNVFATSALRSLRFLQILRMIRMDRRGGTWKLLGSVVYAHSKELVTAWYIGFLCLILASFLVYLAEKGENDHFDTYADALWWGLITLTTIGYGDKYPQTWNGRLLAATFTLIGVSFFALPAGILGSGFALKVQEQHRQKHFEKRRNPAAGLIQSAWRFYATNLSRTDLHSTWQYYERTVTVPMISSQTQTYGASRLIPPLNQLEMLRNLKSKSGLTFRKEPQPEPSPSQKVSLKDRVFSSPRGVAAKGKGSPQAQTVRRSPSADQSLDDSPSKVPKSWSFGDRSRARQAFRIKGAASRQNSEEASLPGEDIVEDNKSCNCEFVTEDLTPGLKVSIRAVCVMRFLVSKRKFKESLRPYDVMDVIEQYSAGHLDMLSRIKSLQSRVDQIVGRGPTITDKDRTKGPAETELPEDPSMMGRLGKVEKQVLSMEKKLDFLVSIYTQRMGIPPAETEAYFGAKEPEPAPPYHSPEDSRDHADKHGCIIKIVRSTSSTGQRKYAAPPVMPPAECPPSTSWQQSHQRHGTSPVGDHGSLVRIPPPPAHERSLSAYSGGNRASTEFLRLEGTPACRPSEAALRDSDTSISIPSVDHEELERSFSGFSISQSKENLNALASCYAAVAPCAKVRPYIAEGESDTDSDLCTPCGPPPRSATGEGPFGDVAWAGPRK
KCNQ2 pot baseline: further read-out of KCNQ2 pot, marked with its call; B-score; compound at 10 µM; measured here: initial fluorescence intensity artifact check;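 brightness before thallium and not channel activity; 0 = typical well and far values either way flag optical interference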
* hit, by the source's call.

A first look, two compounds:
SMILES	KCNQ2 pot	KCNQ2 pot baseline
COCCCNC(=O)c1cc(-c2cccnc2)nc2ccccc12	2.07	-0.11
S=C(NCc1ccccc1)NCc1ccco1	0.5	-0.17

This part in full, repeating the preview:
SMILES	KCNQ2 pot	KCNQ2 pot baseline
COCCCNC(=O)c1cc(-c2cccnc2)nc2ccccc12	2.07	-0.11
S=C(NCc1ccccc1)NCc1ccco1	0.5	-0.17
CCOC(=O)c1[nH]c(C)c(C(=O)OC)c1C	1.02	2.47
C=CCn1c(SCC(=O)N2CCOCC2)nc2sc(C)c(C)c2c1=O	0.62	1.53
COc1ccc(NC(=O)CCN2CC(C)OC(C)C2)c(OC)c1 (stereo not drawn)	1.16	1.22
O=C(NN1CCCCC1)c1cnn2c(C(F)F)cc(-c3ccccc3)nc12	3.18	-2.34
CCc1ccc(S(=O)(=O)c2n[nH]n3c2nc(=O)c2ccccc23)cc1	3.3	-2.94
Cc1cc(=O)[nH]c(SCC(=O)Nc2ccc(Cl)cn2)n1	0.14	-1.59
OC[C@@H](O)[C@@H](O)[C@H](O)[C@H](O)CO	0.21	1.62
Cc1c(C(=O)OCC(=O)N2CC(=O)Nc3ccccc32)oc2ccc(Br)cc12	2.3	-1.01
O=C1CCCC(O)=C1N=Nc1ccc(C(=O)O)cc1	1.74	0.15
COc1cc2c(cc1OC)C(c1ccc(Br)cc1)NCC2 (stereo not drawn)	0.16	0.91
CCCCS(=O)(=O)N1CCC(C(=O)Oc2ccc(Cl)cc2)CC1	0.02	-0.45
CCCCCc1nc2sc3c(c2c(=O)n1NC(=O)c1ccc([N+](=O)[O-])cc1)CC(C)(C)OC3	0.32	-2.29
CCOC(=O)c1ccccc1NS(=O)(=O)c1ccc(S(=O)(=O)N2CCCC2)cc1	0.37	-0.1
O=C(O)c1cnn(-c2nc(-c3ccc(F)cc3)cs2)c1C(F)(F)F	1.48	-2.22
COc1ccc(OC)c(/C=N/NC(=O)c2ccc3nc[nH]c3c2)c1	2.15	-1.78
COc1ccccc1Oc1coc2c(CN(C)C)c(O)ccc2c1=O	0.95	-0.35
O=C(c1ccc2c(=O)n3c(nc2c1)CCC3)N1CCN(S(=O)(=O)c2cccc(F)c2)CC1	0.06	-0.66
Cc1nnc(SCc2ccc(C(=O)Nc3cc(Cl)ccc3C)cc2)s1	0.17	3.23
Cc1cccc2cc(CN(Cc3nnnn3C3CCCC3)C3CCCCC3)c(=O)[nH]c12	1.37	0.02
CC(C(=O)Nc1ccccc1F)N1C(=O)c2ccccc2C1=O (stereo not drawn)	0.62	-0.17
O=C(CSc1nnc2ccccn12)Nc1ccccc1C(=O)O	0.39	1.46
Cc1ccc(C)c(C(=O)CN2C3=NCCCN3c3ccccc32)c1	2.79	-0.76
O=C(NCCN1CCOCC1)c1cccs1	0.63	0.67
SMILES	KCNQ2 pot	KCNQ2 pot baseline
COc1ccc(NC(=S)N2CCc3cc(OC)c(OC)cc3C2)cc1	0.62	-0.1
CNC(=O)c1nnc(Cc2ccc(F)cc2)o1	0.51	-0.83
O=C(NCc1ccc(Cl)cc1)c1ccc(CNc2c(N3CCCC3)c(=O)c2=O)cc1	0.16	1.43
CCOC(=O)N1CCN(C(=O)COC(=O)CNC(=O)c2ccc(C)cc2)CC1	0.38	1.33
COc1ccc(C2=NN(c3nc(C(=O)O)cs3)C(O)(C(F)(F)F)C2)c(OC)c1 (stereo not drawn)	0.56	0.56
CC(=O)NC(CC(=O)NC1CCCCC1)c1ccccc1 (stereo not drawn)	0.3	0.85
COc1cccc(NC(=O)c2cc([N+](=O)[O-])ccc2N2CCN(C)CC2)c1	1.28	-0.67
CC(=O)NCCc1cc2cc(C)c(C)cc2[nH]c1=O	0.93	-1.18
O=c1cc(CN2CCOCC2)nc(C2CC2)[nH]1	0.21	0.33
COC(=O)c1ccc(C2c3[nH]c4ccccc4c3C[C@H]3C(=O)N(C4CC4)CC(=O)N23)cc1 (stereo partly drawn)	3.27	0.02
CCC(C)(C)n1nnnc1C(c1cc(OC)ccc1OC)N1CCC(C(N)=O)CC1 (stereo not drawn)	0.22	-0.47
Cc1ccc(S(=O)(=O)N2CCC(C(=O)OCC(=O)N(C)C3CCS(=O)(=O)C3)CC2)cc1C (stereo not drawn)	0.16	-0.17
O=C(Nc1ccc(Cl)cc1)Nc1ccccc1NS(=O)(=O)c1cccs1	1.47	-0.49
Cc1ccnc(NC(=S)N2CCN(c3cccc(C(F)(F)F)c3)CC2)c1	2.32	0.01
CC(=O)Nc1ccc(S(=O)(=O)NCCc2csc(-c3cccnc3)n2)cc1	1	-0.18
CCN1CCC(N2CCN(c3ccc(F)cc3)CC2)CC1	0.32	0.28
COc1ccc(CCNC(=O)CN(c2ccccc2OC)S(C)(=O)=O)cc1OC	0.39	-0.09
CCOC(=O)c1ccc(CN2Cc3ccccc3C2=O)cc1	1.02	1.26
C/C(=N/NC(=O)CNC(=O)/C=C/c1ccccc1)c1ccco1	0.96	-0.61
COC(=O)[C@H](CCSC)NC(=O)Nc1ccc(S(N)(=O)=O)cc1	0.45	-0.51
Cc1ccc(S(=O)(=O)Nc2ccc3ccccc3n2)cc1	0.04	-1.16
Cc1cc(NCc2ccccc2)nc2ccccc12	2	0.03
O=C1CN(C(=O)c2ccccc2F)c2ccccc2N1	1.04	-1.51
O=C(Cn1cnc2ccccc2c1=O)Nc1ccc2c(c1)CCC2	0.29	-0.5
Cc1c(C#N)c(NC(=O)C(C)C)n(Cc2ccccc2)c1C	0.39	-0.2
SMILES	KCNQ2 pot	KCNQ2 pot baseline
Cc1ccc(NC(=O)c2cc(S(=O)(=O)N3CCOCC3)cn2C)cc1Cl	0.04	-0.35
COc1ccc(-n2cc(C(=O)O)c3ccccc3c2=O)cc1	0.62	-0.02
CCOc1ccc(-n2ccnc(SCC(=O)NCc3cccc(OC)c3)c2=O)cc1	0.91	0.65
CN(C)c1cc(-c2ccc(Br)cc2)oc(=O)c1Cl	0.85	-0.24
c1ccc(Nc2nc(-c3ccccn3)cs2)cc1	0.81	0.87
Cc1ccc(OCc2nnc(SCC(N)=O)n2N)cc1	0.81	1.3
Cn1c(=O)c2ccccc2n2c(=S)[nH]nc12	1.03	0.7
Cc1csc(NC(=O)/C=C/c2ccco2)n1	0.09	0.25
N=C(N)SCc1ccc(Cl)cc1Cl	1.42	-1.06
NS(=O)(=O)c1ccc(CCNC(=O)CN2CCCCCC2)cc1	1.12	-0.06
S=C(NCc1ccccc1)Nc1ccc2ccccc2c1	0.02	0.75
CCCCCCn1c(CN2CCN(C(=O)OCC)CC2)nc2c1c(=O)n(C)c(=O)n2C	0.54	-0.31
COCCCNC(=O)CN(CCc1ccccc1)S(=O)(=O)c1ccc(OC)cc1	0.53	-0.84
CCN(CCCNC(=O)C1c2ccccc2C(=O)N(CCOC)C1c1ccc(F)cc1)Cc1ccccc1 (stereo not drawn)	0.76	-0.64
Clc1cccc(NCc2nnc3n2CCCCC3)c1	0.06	1.12
COCCn1c(N)c(N(Cc2ccccc2)C(=O)C2CCCC2)c(=O)[nH]c1=O	0.13	-0.02
Cc1c(C(=O)NCc2cccnc2)oc2ccc(S(=O)(=O)N3CCCCC3)cc12	0.65	0.14
COc1ccc(S(N)(=O)=O)cc1C(=O)OCCCOc1ccc(F)cc1	0.05	-0.08
CCOc1cc(S(=O)(=O)NCc2ccc(OC)cc2)c(OCC)cc1-n1cnnn1	1.57	-0.03
Cc1cnc(C(=O)Nc2ccccc2-n2cccc2)cn1	1.45	0.38
CC(=O)c1ccc(NC(=O)CN2CCN(CC(=O)Nc3ccc(C(C)=O)cc3)CC2)cc1	0.04	1.1
Cc1occc1-c1nnc(SCC(=O)c2ccc3c(c2)OCCO3)n1CC1CCCO1 (stereo not drawn)	0.01	0.88
CCCCNC(=O)COC(=O)CCC(=O)c1cccs1	0.08	1.99
Cc1sc2nc(CSCC(=O)Nc3c(F)cccc3F)[nH]c(=O)c2c1C	0.05	-0.7
NCC(c1ccco1)c1c[nH]c2ccccc12 (stereo not drawn)	1.4	-0.04

Arranged by length of the SMILES (rising): some entries from above
SMILES	KCNQ2 pot	KCNQ2 pot baseline
CN(C)c1cc(-c2ccc(Br)cc2)oc(=O)c1Cl	0.85	-0.24
Cc1ccc(NC(=O)c2cc(S(=O)(=O)N3CCOCC3)cn2C)cc1Cl	0.04	-0.35
CCOc1cc(S(=O)(=O)NCc2ccc(OC)cc2)c(OCC)cc1-n1cnnn1	1.57	-0.03

(continued)
SMILES	KCNQ2 pot	KCNQ2 pot baseline
CS(=O)(=O)c1ccc2nc(NC(=O)c3ccc(NS(=O)(=O)c4ccc(F)c(F)c4)cc3)sc2c1	0.45	-1.2
Cc1cc(C)c(-c2csc(NC(=O)C3=COCCO3)n2)c(C)c1	1.29	-0.84
Nc1nonc1-n1nnc(C(=O)N/N=C/c2cccnc2)c1CSc1ccccc1	1.44	-0.01
CCOC(=O)c1c(CN2CCOCC2)oc2ccc(OC(C)=O)cc12	0.05	-0.8
OCCCNc1ncnc2c1cnn2-c1ccc(Cl)cc1	2.34	-1.5
Cc1cccc(Cn2c(N3CCCCC3C)nc3c2c(=O)[nH]c(=O)n3C)c1 (stereo not drawn)	1.85	1.09
Cc1cnc(C(=O)OCc2csc(CC(=O)Nc3ccccc3C)n2)cn1	1.47	-0.49
Cc1ccc(NC(=O)Nc2cc(S(=O)(=O)N(C)C)ccc2C)cc1	1.17	0.3
COc1ccccc1N1CCN(C(=O)c2ccc([N+](=O)[O-])s2)CC1	0.64	0.77
Cc1ccc(OCCCC(=O)Nc2nc3ccccc3[nH]2)cc1	0.1	0.89
O=C(CN(C(=O)CCC(=O)Nc1ccccn1)c1ccc2c(c1)OCCO2)NCCc1ccccc1	1.54	0.52
COc1cccc(N=Cc2c(O)c3ccccc3oc2=O)c1	1.29	-2.45
Nc1ccc(-c2nc3ncccc3o2)c(Cl)c1	2.53	-0.61
O=C(NC(=S)Nc1cccc([N+](=O)[O-])c1)C1CCCC1	0.01	-0.06
Cc1ccc2sc(N3CCN(C(=O)C4=COCCO4)CC3)nc2c1C	1.4	1.42
COCCNC(=O)c1cc2c(-c3ccc(Cl)cc3)nn(C)c2s1	0.88	-0.01
CSc1ccc(CCNC(=O)C2CCCN(c3nn4c(=O)cc(C)nc4s3)C2)cc1 (stereo not drawn)	1.12	0.89
Cc1noc(C)c1COc1ccc(C(=O)NCC2CCCO2)cc1 (stereo not drawn)	0.17	1.11
Clc1ccc(Nc2ncn[nH]2)c(Cl)c1	2.45	-0.17
COc1ccc(C[C@H]2CN3C(=NC[C@H]3C)N2CCNC(=O)c2ccc(C)c(Br)c2)cc1	0.02	0.73
COc1c(F)c(F)cc2c(=O)c(C(=O)O)cn(C3CC3)c12	0.02	-0.24
O=C(C1CC(=O)N(c2ccc(F)cc2)C1)N1CCN(c2ccccc2)CC1 (stereo not drawn)	0.96	0.32
CN(C)S(=O)(=O)c1ccc(C(=O)Nc2nnc(Cc3ccccc3)s2)cc1	0.32	0.25
C[C@H](O)[C@@H](C(=O)N1CCN(C(=O)OC(C)(C)C)CC1)n1cc(CCCCNC(=O)OC(C)(C)C)nn1	0.86	-0.16
O=C(CNC(=O)C12CC3CC(CC(C3)C1)C2)N/N=C\c1ccco1	0.02	0

Single records, from the list above.
`COc1ccccc1N1CCN(C(=O)c2ccc([N+](=O)[O-])s2)CC1` is listed with KCNQ2 pot = 0.64; KCNQ2 pot baseline = 0.77
`Cc1cnc(C(=O)OCc2csc(CC(=O)Nc3ccccc3C)n2)cn1` is listed with KCNQ2 pot = 1.47; KCNQ2 pot baseline = -0.49
`Cc1ccc(NC(=O)Nc2cc(S(=O)(=O)N(C)C)ccc2C)cc1` is listed with KCNQ2 pot = 1.17; KCNQ2 pot baseline = 0.3

(list continues)
SMILES	KCNQ2 pot	KCNQ2 pot baseline
Nc1ccc(-c2nc3cc(N)ccc3o2)cc1	0.41	0.03
O=C(COC(=O)c1nsc(Cl)c1Cl)NC1CCCCC1	0.92	2.1
C/C(=N\NC(=O)c1cc(Br)ccc1O)c1cccs1	0.01	0.05
Cc1cccc(NC(=O)CN2C(=O)NC3(CCCC3)C2=O)n1	1.66	-0.04
CCCCN(C)CCNC(=O)c1cc2cc3ccc(OC)cc3nc2o1	2.08	0.65
O=C(O)C[C@H]1c2cc(C(F)(F)F)ccc2S(=O)(=O)N1C1CCN(Cc2ccccc2)CC1	0.71	1.62
Cc1cccc(C)c1OCC(=O)Nc1ccc(S(=O)(=O)Nc2ccccn2)cc1	1.34	0.14
COc1cc(C2Nn3c(nnc3-c3ccccc3OC)S2)ccc1O (stereo not drawn)	1.23	-0.42
CC(C)c1nnc(NC(=O)C2CCN(c3cnccn3)CC2)s1	0.65	0.2
COc1ccccc1NC(=O)COC(=O)CNC(=O)c1ccc(OC)c(OC)c1	1.61	0.01
CC1S/C(=C(\C#N)C(N)=O)N(c2ccc(F)cc2)C1=O (stereo not drawn)	2.19	-0.82
O=C(Cc1ccccc1)Nc1nnc(-c2ccccc2)o1	0.92	-0.33
Cn1c(=O)[nH]c(=O)c2c1nc(CN1CCN(c3cccc(Cl)c3)CC1)n2CCN1CCOCC1	0.37	-0.2
CCCCCOc1ccc(C(=O)Nc2ccc(S(=O)(=O)Nc3cc(C)on3)cc2)cc1	0.11	-0.02
C/C(=N\NC(=O)c1ccc(CN2CCOCC2)cc1)c1ccc([N+](=O)[O-])cc1	0.22	1.2
Cc1cccnc1Sc1c([N+](=O)[O-])ncn1C	0.76	-0.17
CC1(C)CC(N=Cc2c(O)n(Cc3ccc4c(c3)OCO4)c(=O)c3ccccc23)CC(C)(C)N1	1.29	2.21
COc1ccc(NC(=O)c2cc3c(CO)cnc(C)c3oc2=Nc2cccc(F)c2)c(OC)c1	0.63	0.88
C=CCn1c(SCC(=O)NC23CC4CC(CC(C4)C2)C3)nc(O)cc1=O	2.13	-0.44
Cc1cc(S(=O)(=O)N2c3ccc(F)cc3CCC2C)ccc1-n1cnnn1 (stereo not drawn)	1.16	0.56

3 compounds out of the list above, ordered by the number in KCNQ2 pot, high to low.
smiles	KCNQ2 pot
CC1S/C(=C(\C#N)C(N)=O)N(c2ccc(F)cc2)C1=O (stereo not drawn)	2.19
O=C(Cc1ccccc1)Nc1nnc(-c2ccccc2)o1	0.92
CC(C)c1nnc(NC(=O)C2CCN(c3cnccn3)CC2)s1	0.65

A portion of the library; the hit share may differ from the screen's.
